Measles inh: inhibitors of measles virus growth in infected cells. z-score (concentration not given with the values). infected Vero cells, GFP fluorescence, 64 h; active compounds read low. 33,000 tested, 0.1% active;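 active = z-score under -3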;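 note: score is relative to mean and SD of the compound wells of a plate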
* = called active by the depositor.

SMILES	Measles inh
CCCCOc1ccc(C2C(=O)N(C3CCCCC3)CC(=O)N2Cc2cccs2)cc1 (stereo not drawn)	0.68
CCC1CCCCN1C(=O)CSc1nc2c([nH]c3ccccc32)c(=O)n1-c1ccccc1 (stereo not drawn)	1.6
CC(C)c1ccc(N2C(=O)C3C(c4ccccc4)OC4(C(=O)c5ccccc5C4=O)C3C2=O)cc1 (stereo not drawn)	-0.85
Cc1ccc(C2CC(C(F)(F)F)n3ncc(C(=O)Nc4ccccc4C(F)(F)F)c3N2)cc1 (stereo not drawn)	0.1
Cc1ccc(NC(=O)C2(c3ccccc3)CCOCC2)cc1C	-0.7
C=CCNc1oc2c(O)cc(=O)[nH]c2c1C#N	0.57
COc1ccc(N2CCN(c3ncnc4sc(C(=O)NCc5ccccc5Cl)c(C)c34)CC2)cc1	-0.09
O=C1c2ccccc2C(=O)c2cc(-c3nc4ccccc4[nH]3)ccc21	-0.05
COc1cccc(C2/C(=C(\O)c3ccc(Cl)cc3)C(=O)C(=O)N2c2ccc(C)c(Br)c2)c1 (stereo not drawn)	-0.98
CCCn1cnc2sc(C(=O)N3CCC(Cc4ccccc4)CC3)c(C)c2c1=O	0.99
COc1ccc(S(=O)(=O)N2c3ccc(C)cc3C(C)=CC2(C)C)cc1	-0.43
O=C(Nc1ccc2oc(-c3ccncc3)nc2c1)c1cccc(Br)c1	-1.1

Seven structures out of the list, sorted by count of non-hydrogen atoms, ascending:
SMILES	Measles inh
C=CCNc1oc2c(O)cc(=O)[nH]c2c1C#N	0.57
Cc1ccc(NC(=O)C2(c3ccccc3)CCOCC2)cc1C	-0.7
COc1ccc(S(=O)(=O)N2c3ccc(C)cc3C(C)=CC2(C)C)cc1	-0.43
CCCCOc1ccc(C2C(=O)N(C3CCCCC3)CC(=O)N2Cc2cccs2)cc1 (stereo not drawn)	0.68
COc1cccc(C2/C(=C(\O)c3ccc(Cl)cc3)C(=O)C(=O)N2c2ccc(C)c(Br)c2)c1 (stereo not drawn)	-0.98
Cc1ccc(C2CC(C(F)(F)F)n3ncc(C(=O)Nc4ccccc4C(F)(F)F)c3N2)cc1 (stereo not drawn)	0.1
CC(C)c1ccc(N2C(=O)C3C(c4ccccc4)OC4(C(=O)c5ccccc5C4=O)C3C2=O)cc1 (stereo not drawn)	-0.85

New compounds follow.
SMILES	Measles inh
CCC(=O)N1c2ccccc2NC2=C(C(=O)CC(C)(C)C2)C1CC1CC=C(C)C1(C)C (stereo not drawn)	-0.95
CCC(=O)N1c2ccc(S(=O)(=O)NCCN3CCOCC3)cc2CC1C (stereo not drawn)	-0.12
CSc1ccc(-c2nnn(CC(=O)Nc3ccc(OC(F)(F)F)cc3)n2)cc1	-0.23
NC(=O)CSc1sc(=S)sc1SCC(N)=O	-0.59
Cc1c(C(=O)Nc2ccc(Cl)cc2)sc2ncn(C)c(=O)c12	-0.82
Cc1ccccc1OCC(=O)Nc1ccc(S(=O)(=O)N2CCC(C)CC2)cc1	0.3
CCOC(=O)CSc1nc2c(sc3ccccc32)c(=O)n1CCCN1CCCC1	-0.2
COc1ccc(OC)c(S(=O)(=O)NCc2ccc(C)cc2)c1	0.47
CCC(C)NC(=O)c1ccc(N2CC3CC(C2)c2cccc(=O)n2C3)c(NC(=O)c2ccccc2Br)c1 (stereo not drawn)	0.13
Cc1cc(C)cc(NC(=O)CSc2nnc(CNC(=O)c3cccs3)o2)c1	1.1
Nc1ccccc1-c1n[nH]c(=S)[nH]c1=O	0.54
CCCC1N=C(c2ccc(Cl)cc2)CC(c2ccccc2O)N1 (stereo not drawn)	0.64

Entries shown so far with a CF3 group (two):
SMILES	Measles inh
Cc1ccc(C2CC(C(F)(F)F)n3ncc(C(=O)Nc4ccccc4C(F)(F)F)c3N2)cc1 (stereo not drawn)	0.1
CSc1ccc(-c2nnn(CC(=O)Nc3ccc(OC(F)(F)F)cc3)n2)cc1	-0.23

(list continues)
SMILES	Measles inh
CCc1cccc(OCC(=O)Nc2ccc(S(=O)(=O)Nc3nccs3)cc2)c1	1.1
O=C(CN1C2=NCCCN2c2ccccc21)c1cccc2ccccc12	-2.3
COc1ccc(OC)c(N(CC(=O)Nc2cc(C)ccc2C)S(=O)(=O)c2ccccc2)c1	-0.45
CCC1CCCCN1C(=O)c1ccc(Sc2ccc(F)cc2)c([N+](=O)[O-])c1 (stereo not drawn)	-2.4
CC1CCc2c(sc(NC(=O)COc3ccccc3C(C)(C)C)c2C(N)=O)C1 (stereo not drawn)	0.05
Cc1nonc1OCCNc1ccc([N+](=O)[O-])cc1	0.25
CCOC(=O)c1cnc2c(C)cc(Cl)cc2c1Nc1cccc(Cl)c1	-0.09
O=C(Cc1ccccc1)Nc1ncc(Cc2ccc(Br)cc2)s1	0.04
CCOC(=O)C1=C(C(F)(F)F)Nc2nnnn2C1c1cc(OC)ccc1OC (stereo not drawn)	-0.59
O=C(Nc1cccc(NC(=O)c2ccc(-c3ccccc3[N+](=O)[O-])o2)c1)c1ccco1	-0.39
COc1ccccc1NC(=O)CSc1oc(-c2cccs2)nc1S(=O)(=O)c1ccccc1	1.2
O=C1c2ccc3c4c(ccc(c24)C(=O)N1c1cccc([N+](=O)[O-])c1)C(=O)N(c1cccc([N+](=O)[O-])c1)C3=O	-0.1
Cc1cccc(NC(=O)C2C3c4ccccc4C(c4ccccc43)C2C)c1 (stereo not drawn)	0.12
Oc1cccc(C(=S)N2CCCCC2)c1	-1.7
O=C(NCc1ccco1)C(=O)Nc1ccccc1Br	-0.99
COc1ccc(C2=NN(CC(=O)NCc3cccnc3)C(=O)CC2)cc1	-1.2
CCOC(=O)C1CCC(CN(Cc2ccccc2Cl)S(=O)(=O)c2ccc(F)c(C)c2)CC1 (stereo not drawn)	-0.23
CC1=C(C)CC(C(=O)Nc2ccc(S(=O)(=O)N3CCOCC3)cc2)C(C(=O)O)C1 (stereo not drawn)	0.37
COC(=O)C1=C(C)NC2=C(C(=O)CC(c3cccc(OC)c3)C2)C1c1coc2ccc(Cl)cc2c1=O (stereo not drawn)	0
CC(C)CCSc1nc2c(c(=O)[nH]c(=O)n2C)n1CCCc1ccccc1	-0.51
O=C1c2cccc(Cl)c2C(=O)c2c1cccc2N1CCOCC1	-0.23
COc1cc(C(=O)Oc2ccc(Br)cc2C(=S)N2CCOCC2)cc(OC)c1OC	-0.03
Cc1ccc(S(=O)(=O)Nc2ccc(Br)cc2C(=O)c2ccc(Cl)cc2)cc1	-1
CCOc1ccc(NC(=O)COc2ccc(C)cc2Br)cc1	1.1
O=C(Nc1ccc(-c2nc3ccccc3c(=O)o2)cc1)c1cccc(Br)c1	-0.55
CC(C)Sc1oc(-c2ccco2)nc1S(=O)(=O)c1ccc(Cl)cc1	-0.12
Cc1ccc(C(=O)Nc2cc(-c3nc4ncccc4o3)ccc2C)c(Cl)c1	-0.78
O=C1C2C3C=CC(O3)C2C(=O)N1c1ccc(Br)cc1[N+](=O)[O-] (stereo not drawn)	-0.02
CC(C)(C)NC(=O)CSc1nc2ccc(Cl)cc2o1	-2.5
CC(C)CCn1c(SCC(=O)c2ccc(O)c(O)c2)nc2ccsc2c1=O	-0.15
COc1cc([N+](=O)[O-])ccc1N1C(=O)C2C(c3ccccc3)OC3(C(=O)c4ccccc4C3=O)C2C1=O (stereo not drawn)	1.2
CCOC(=O)C1=C(N)OC2=C(C(=O)CC(C)(C)C2)C1c1ccc(OCc2ccccc2)cc1 (stereo not drawn)	-1.2
O=C(O)CCNC(=O)c1ccccc1Br	0.71
CCOc1ccc(C2C(C(=O)OCc3ccccc3)=C(C)NC3=C2C(=O)CC(c2ccccc2)C3)cc1 (stereo not drawn)	-0.66
NC(=O)c1cc2cc([N+](=O)[O-])ccc2oc1=Nc1cccc(F)c1	0.02
Cc1cc(C(=O)Nc2ccc3oc(Cc4ccc(Cl)cc4)nc3c2)ccc1[N+](=O)[O-]	-0.89
O=C(CSc1ncccc1C(=O)n1ccnc1)N1CCCCCC1	-0.31
COc1ccc(C2NC(=O)NC(C)=C2C(=O)Nc2ccccc2OC)cc1 (stereo not drawn)	-0.87
CN(C(=O)c1ccc(Cn2cc([N+](=O)[O-])cn2)o1)C12CC3CC(CC(C3)C1)C2	0.17
Oc1ccc(C2=NNC(c3ccc(O)cc3)=NN2)cc1	-0.82
Cc1cc2c(N(C)c3ccc(Cl)cc3)ncnc2s1	-0.31
CC1CCCCN1c1cc(Nc2ccc3c(c2)OCCO3)c2c3c(onc13)-c1ccccc1C2=O (stereo not drawn)	0.3
COc1ccccc1-c1nnc(-c2cc3ccccc3cc2OC)o1	-2.4
CC(C)CNC(=O)c1nn2c(C(F)(F)F)cc(-c3ccc(Br)cc3)nc2c1Cl	-0.25
COc1ccccc1Nc1nc(-c2sc(NC(C)=O)nc2C)cs1	-0.96
CCOC(=O)CSc1nnc2c3ccccc3n(CC)c2n1	-0.05
O=c1nc2cccc3c2=c(/c1=C(\O)c1ccccc1)c1ccccc1c3=O	0.11
Cc1ccc(C)c(NS(=O)(=O)c2ccc3c(c2)c(=O)n(C)c(=O)n3C)c1	-1.2

Compounds listed so far containing an NH in an aromatic ring, in the order listed:
SMILES	Measles inh
CCC1CCCCN1C(=O)CSc1nc2c([nH]c3ccccc32)c(=O)n1-c1ccccc1 (stereo not drawn)	1.6
C=CCNc1oc2c(O)cc(=O)[nH]c2c1C#N	0.57
O=C1c2ccccc2C(=O)c2cc(-c3nc4ccccc4[nH]3)ccc21	-0.05
Nc1ccccc1-c1n[nH]c(=S)[nH]c1=O	0.54
CC(C)CCSc1nc2c(c(=O)[nH]c(=O)n2C)n1CCCc1ccccc1	-0.51

Next section:
SMILES	Measles inh
Cc1c(C(=O)NCCC2=CCCCC2)oc2ccc(S(=O)(=O)N3CCCCC3)cc12	-0.63
CCCC(=O)NC(c1ccccc1OC)c1cc([N+](=O)[O-])c2cccnc2c1O (stereo not drawn)	-0.87
COc1ccc(N(C)C(=O)Cn2ncc3c(=O)oc4ccccc4c32)cc1	0.07
CCN(CC)C(=O)c1c(NC(=O)c2ccco2)sc2c1CCCC2	3.5
CN(C)CCCNc1nc(-c2ccccc2)c2c(c1C#N)CC(C)(C)OC2	0.83
O=C(NCC1CCCO1)c1n[nH]c(=O)c2ccccc12 (stereo not drawn)	-0.09
CCC(C)NC(=O)CCNC(=O)c1ccc2c(c1)OCO2 (stereo not drawn)	0.15
Cc1ccc2c(C(=O)CN3CCOCC3)c(C)[nH]c2c1	0.97
Cc1ccc(N2CC(C(=O)Nc3ccc(N4CCC(C)CC4)cc3)CC2=O)cc1 (stereo not drawn)	-1.5
O=C(Nc1sc2c(c1C(=O)Nc1ccc(Br)cc1)CCCCC2)c1cccnc1	2.8
Cc1cccn2c(=O)cc(O)nc12	-0.33
COc1ccc(OC)c(N(CC(=O)NC2CCCC2)S(=O)(=O)c2ccccc2)c1	-0.2
O=C(NCCN1CCCC1)c1cc(Sc2cccc(Cl)c2)nc2ccccc12	-1.2
Cc1ccc(-c2cc(C(=O)O)c3cc(Cl)ccc3n2)cc1C	0.44
CSc1nnc2c(n1)OC(c1ccccc1Br)Nc1ccccc1-2 (stereo not drawn)	-0.72
Cc1cccc(-n2ccnc2SCC(=O)Nc2cccc(C(F)(F)F)c2)c1	0.97
CCOCCCNC(=O)c1ccc2c(c1)ncn2-c1ccc(OC)cc1	-1.7
CC1(C)CC(=O)c2cc3c(N)c(C(=O)c4ccc(F)cc4)sc3nc2C1	-1.1
Cc1sc2ncn(CC(=O)NCC(=O)NC(C)C)c(=O)c2c1C	-1.2
O=C(CCN1C(=O)COc2ccccc21)NCCN1CCCCCC1	0.56
COc1ccc(CCNC(=O)CN2C(=O)CSc3ccccc32)cc1OC	0.7
Cc1ccnc(N2C(=O)c3cccc4c([N+](=O)[O-])ccc(c34)C2=O)c1	8.1
COc1ccc(CCN2C(=S)NC3CC2(C)Oc2ccc(C)cc23)cc1OC (stereo not drawn)	-0.24
Cc1cc(C)n2nc(SCC(=O)NC3CCCc4ccccc43)nc2n1 (stereo not drawn)	-0.84
CC(=O)N1CCc2cc(Br)cc(S(=O)(=O)CCC(=O)N3CC(C)CC(C)C3)c21 (stereo not drawn)	0.93
CC1Cc2nc(SCC(=O)NCc3ccc(F)cc3)n(Cc3ccccc3)c(=O)c2S1 (stereo not drawn)	0.23
O=c1[nH]c2ccc(S(=O)(=O)N3CCCCC3)cc2o1	0.17
O=C(NC1CCCCC1)c1cc2c(=O)[nH]c3ccccc3c2s1	-0.65
O=C(NCC(CNCc1ccccc1)([N+](=O)[O-])[N+](=O)[O-])c1ccccc1	-2.3
CCOCCCNC(=O)c1cnn2c(C)c(Cc3cccc(Cl)c3)c(C)nc12	-0.97
C=CCSc1nnc2c(n1)OC(c1ccc(OCC(=O)O)c(OC)c1)Nc1ccccc1-2 (stereo not drawn)	-0.14
COCCOC(=O)C1=C(C)NC(=O)NC1c1ccc(Br)cc1 (stereo not drawn)	-0.42
COc1ccc(N(C(=O)c2ccccc2OC)S(=O)(=O)c2ccc(Cl)cc2)cc1	1.5
CC(C(=O)NCCc1ccccc1)C1Sc2ccccc2N(Cc2cccc(Cl)c2)C1=O (stereo not drawn)	0.11
CC(C)CNC(=O)C(=O)Nc1cccc(F)c1	-0.71
COC(=O)C1=C(C)NC2=C(C(=O)CCC2)C1c1ccccc1OC (stereo not drawn)	-0.03
Cc1c(C(=O)N2CCC(C#N)CC2)sc2ncnc(N3CCc4ccccc4C3)c12	-0.03
CCc1cc2c(SCC(=O)c3ccc(Cl)cc3)ncnc2s1	-0.35
Cc1nc2nc(SCC(=O)NC3CCCCC3)nn2c(C)c1Cc1ccccc1	-0.49
Cc1cccc(C)c1NC(=O)C(c1ccccc1[N+](=O)[O-])N(C)C(=O)CN1C(=O)c2ccccc2C1=O (stereo not drawn)	-0.15
O=C(CSc1nccn1-c1ccc(Cl)cc1)NCc1ccco1	0.62
COc1ccc(-n2nc(C(=O)N3CCCC3)c3c4ccccc4n(C)c3c2=O)cc1	0.23
CCCn1c(C(O)c2ccccc2)nc2ccccc21 (stereo not drawn)	0.63
C#Cc1cccc(N2C(=O)c3ccc(-c4nc5ccccc5c(=O)o4)cc3C2=O)c1	0.23
COc1ccc(C2CC(c3ccc(Br)cc3)=NN2C(=O)CSC2=NN3CCCC(=O)N=C3S2)cc1 (stereo not drawn)	0.96
CC(=O)c1c(C)[nH]c(C(=O)N(CCc2ccccc2)Cc2ccccc2)c1C	-0.11
CC(C)CCNS(=O)(=O)c1ccc2nc(-c3ccccc3)[nH]c2c1	-0.65

Only part of the results is shown; count on the stated rates, not on these rows.
